KCNQ2 inh: KCNQ2 potassium channel inhibitors, primary screen, cell-based, CHO-K1, FluxOR thallium flux, B-score (AID 2156). O88943. 20 min; stronger effect = lower value; only compounds with negative scores are shown here; some inactives read as strong as hits. B-score at 10 µM. 310,000 compounds, 1.1% hits;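 active = fluorescence ratio B-score at most minus 3 library SDs, with starting brightness B-score within 2 library SDs, cut at about -5.5 in these data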
Target sequence (O88943 whole entry, looked up): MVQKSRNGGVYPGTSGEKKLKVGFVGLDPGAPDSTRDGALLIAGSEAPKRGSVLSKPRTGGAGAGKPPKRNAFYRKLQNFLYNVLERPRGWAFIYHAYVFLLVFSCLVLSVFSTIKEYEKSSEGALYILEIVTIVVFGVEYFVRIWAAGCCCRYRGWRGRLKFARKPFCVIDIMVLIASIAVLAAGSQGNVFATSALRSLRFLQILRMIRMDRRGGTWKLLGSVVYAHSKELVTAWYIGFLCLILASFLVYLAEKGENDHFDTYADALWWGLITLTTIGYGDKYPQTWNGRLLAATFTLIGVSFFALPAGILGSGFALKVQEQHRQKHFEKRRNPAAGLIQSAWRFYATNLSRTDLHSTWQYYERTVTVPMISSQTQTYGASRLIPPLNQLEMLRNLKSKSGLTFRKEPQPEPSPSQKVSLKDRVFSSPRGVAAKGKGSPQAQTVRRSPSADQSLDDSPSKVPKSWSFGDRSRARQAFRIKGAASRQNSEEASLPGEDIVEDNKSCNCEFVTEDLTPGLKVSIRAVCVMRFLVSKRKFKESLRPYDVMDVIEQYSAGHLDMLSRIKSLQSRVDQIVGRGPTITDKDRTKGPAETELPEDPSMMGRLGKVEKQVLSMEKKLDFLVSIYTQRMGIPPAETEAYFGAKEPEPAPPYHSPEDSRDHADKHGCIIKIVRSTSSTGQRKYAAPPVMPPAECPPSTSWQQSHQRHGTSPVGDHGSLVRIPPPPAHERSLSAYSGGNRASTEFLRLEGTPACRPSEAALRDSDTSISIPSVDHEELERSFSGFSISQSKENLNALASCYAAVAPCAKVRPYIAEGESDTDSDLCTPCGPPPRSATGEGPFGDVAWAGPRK
KCNQ2 inh baseline: also measured in KCNQ2 inh; calls as there; B-score; measured here: initial fluorescence intensity artifact check;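 brightness before thallium and not channel activity; 0 = typical well and far values either way flag optical interference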
Numbers without * were called inactive; i = inactive.

Screens in order: KCNQ2 inh baseline	KCNQ2 inh
Cc1cc(C)n(C(C[N+](=O)[O-])c2ccc(Cl)cc2)n1 (configuration not stated)
  -0.02*	-10*
C=CCCN(C(CC(C)C)C(=O)OC)S(=O)(=O)c1cc(Br)ccc1Br (configuration not stated)
  -0.91	i
CC(=O)Nc1ccc(S(=O)(=O)N2CCC(C(=O)NCc3ccco3)CC2)cc1
  0.72	i
Cc1cc(C(=O)CSc2nnc(-c3cccnc3)n2-c2ccccc2F)c(C)n1CC1CCCO1 (configuration not stated)
  0.62	i
O=C1NC2(CCCCC2)C(=O)N1CCN1C(=O)c2ccccc2C1=O
  -0.08	i
COc1cc2c(cc1NS(=O)(=O)N1CCCCC1)oc1ccccc12
  -2.1	i
O=C(NCC1CCN(Cc2ccccc2F)CC1)C1CCCN(c2ncnc3c2nc2n3CCCCC2)C1 (configuration not stated)
  -0.05	i
CC(=O)n1ccnc1
  0.56	i
CC(=O)Nc1ccc(NC2=C(Cl)C(=O)c3ccccc3C2=O)cc1
  0.89	i
COc1ccc(C(=O)NN2C(=O)C3CCC(C)(C2=O)C3(C)C)cc1 (configuration not stated)
  1.1	i
CCOC(=O)c1cnn(-c2ccccc2)c1-n1cccc1C(=O)C(=O)Nc1ccc(F)cc1
  -1.8	i
CCOCC(=O)Nc1cc(-c2cn3cccnc3n2)ccc1C
  0.04	i
Cc1cccc(N2CC(O)(c3cccs3)[N+]3=C2CCCC3)c1C (configuration not stated)
  -0.47	i
COc1ccc(OC)c(Nc2nc(-c3sc(NC(=O)c4ccccc4)nc3C)cs2)c1
  0.86	i
COC(=O)C1=C(C(=O)OC)C(c2ccc(OC)c(OC)c2)c2sc(=O)[nH]c2S1 (configuration not stated)
  0.02	i
COc1cc(C(=O)NC2CC(C)(C)Cc3c2cnn3-c2ccccc2)cc(OC)c1OC (configuration not stated)
  -0.46	i
CCN(CC(=O)Nc1cccc(OC)c1)CC(=O)Nc1ccccc1C
  0.26	i
Cc1cc(C)nc(N/N=C/c2ccc([N+](=O)[O-])o2)n1
  -3.1	i
Nc1cccc(C(=O)Nc2cccc3ncccc23)c1
  -1	i
CCOc1ccc(S(=O)(=O)N2CCCC(C(=O)NCc3cccnc3)C2)cc1C (configuration not stated)
  -0.03	i
O=C(Nc1nc(-c2cccs2)cs1)C1=COCCO1
  -0.01	i
Cc1ccc(OCCCC(=O)N(C)CC(=O)Nc2ccccc2Cl)cc1
  -1.2	i
Cc1c(=O)n(OCc2ccc(Cl)cc2)c2ccccc2[n+]1[O-]
  -0.97	i
O=C(COC(=O)C1CCN(S(=O)(=O)c2cc([N+](=O)[O-])ccc2Cl)CC1)Nc1ncc(Cl)cc1Cl
  0.7	i
Nn1cnnc1SC1CCCCC1NS(=O)(=O)c1ccccc1 (configuration not stated)
  -0.67	i
Brc1ccc(OCc2nnc(SCC3CCCCC3)o2)cc1
  -0.18	i
CCOC(=O)C1CCCN(S(=O)(=O)c2ccc(OC)c3ccccc23)C1 (configuration not stated)
  0.34	i
O=C(CCl)NCCCCCCCCCNC(=O)CCl
  1.8	i
Cc1cccc(CN2CCSc3sccc3C2=O)c1
  -0.35	i
CCN(CC)C(=O)CSc1nc(COc2ccccc2)nc2ccccc12
  0.95	i

Reformatted: entries from further up
Compound	KCNQ2 inh baseline	KCNQ2 inh
Cc1cc(C)nc(N/N=C/c2ccc([N+](=O)[O-])o2)n1	-3.1	i
Nc1cccc(C(=O)Nc2cccc3ncccc23)c1	-1	i
CCOc1ccc(S(=O)(=O)N2CCCC(C(=O)NCc3cccnc3)C2)cc1C (configuration not stated)	-0.03	i
O=C(Nc1nc(-c2cccs2)cs1)C1=COCCO1	-0.01	i
Cc1ccc(OCCCC(=O)N(C)CC(=O)Nc2ccccc2Cl)cc1	-1.2	i
Cc1c(=O)n(OCc2ccc(Cl)cc2)c2ccccc2[n+]1[O-]	-0.97	i

(continued)
Screens in order: KCNQ2 inh baseline	KCNQ2 inh
CCN1C(=O)[C@H]2[C@@H](c3ccc(SC4CCCCC4)c(OC)c3)N3CCCC[C@@]3(C(=O)OC)[C@H]2C1=O
  0.22	i
Cc1ccc(CNC(=O)c2ccc(Cn3nc(C)cc3C)o2)cc1
  1.2	i
Cc1noc(/C=C/N(C)C)c1S(=O)(=O)N1CCN(c2ccccc2)CC1
  2.5	i
C(=C\c1ccc2ccccc2n1)/c1ccccc1
  -0.41	i
Cc1cccc(Cn2c(C(C)O)nc3ccccc32)c1 (configuration not stated)
  2.1	i
CCn1c(-c2cc(-c3ccc(OC(C)C)cc3)nc3ccccc23)n[nH]c1=S
  1.5	i
Cc1nnc(SCC(=O)Nc2ccc3c(c2)OCO3)n(N)c1=O
  1.8	i
COc1cccc(-c2cn(C[C@H]3CC[C@@H]([C@@H]4CC[C@H](Cn5cc(-c6cccc(OC)c6)nn5)O4)O3)nn2)c1
  0.01	i
CCOc1ccc(-c2nnc3ccc(SCC(=O)NCc4ccco4)nn23)cc1
  1.4	i
CC(=O)c1cn(N2CCCCC2)c(=O)[nH]c1=O
  0.96	i
S=c1[nH]nc(CSCc2ccc(Cl)cc2Cl)n1-c1ccccc1
  1.5	i
O=C(c1cc2cc(Br)ccc2s1)N1CCOCC1
  0.15	i
CCn1nc(C)c(NC(=O)Nc2cccc(Cl)c2Cl)c1C
  2.2	i
Cc1ccc(NC(=O)COC(=O)c2cc(Cl)ccc2[N+](=O)[O-])c(C)c1
  0.51	i
O=C(CC1NCCNC1=O)Nc1ccc(Cl)c(Cl)c1 (configuration not stated)
  -0.05	i
Cc1nn(C)c(C)c1C(=O)NN
  1.6	i
Fc1ccc(C(c2nnnn2C2CCCC2)N2CCN(Cc3ccncc3)CC2)cc1 (configuration not stated)
  -0.01	i
Cc1ccc2[nH]c(=O)c3cc(C(=O)NCCC(C)C)sc3c2c1
  -0.47	i
O=C(c1ccc(C(F)(F)F)cc1)c1c[nH]c(C(=O)NCCCn2ccnc2)c1
  5.4	i
CC/C(=N\NC(=S)NC(C)C)c1ccc(OC)c(OC)c1
  -0.81	i
Cc1c(C(=O)N/N=C/c2ccccc2)[nH]c2c([N+](=O)[O-])cccc12
  -0.95	i
COc1ccc(-c2cc(C(=O)N3CCCCCC3)c3ccccc3n2)c(OC)c1
  0.02	i
COc1ccc(N2CCN(Cc3nnc(-c4ccccc4)o3)CC2)cc1
  1.1	i
O=c1c(Cl)c(Cl)cnn1Cc1ccccc1Cl
  -0.02	i
COC(=O)[C@@H]1CC[C@H](C)[C@@H](c2ccc(C)cc2)N1C(=O)c1ccc(/C=N/OC[C@@H](O)COCc2ccco2)cc1
  0.04	i
CC(C)CC1C(C#N)=C(N)SC(N)=C1C#N
  1.2	i
COc1ccc2cc(-c3[nH]ncc3CN3CCCC3c3nonc3C)ccc2c1 (configuration not stated)
  3.3	i
COc1cccc(N/C=C/C(=O)c2ccc(Cl)cc2)c1
  0.5	i
CCSc1nnc(-c2ccc(Cl)cc2Cl)o1
  0.07	i
CCOC(=O)N1CCN(C(=O)c2cc3c(ccc4ccccc43)oc2=O)CC1
  1.4	i

Reformatted: entries from further up
SMILES	KCNQ2 inh baseline	KCNQ2 inh
O=c1c(Cl)c(Cl)cnn1Cc1ccccc1Cl	-0.02	i
O=C(c1ccc(C(F)(F)F)cc1)c1c[nH]c(C(=O)NCCCn2ccnc2)c1	5.4	i
COc1cccc(N/C=C/C(=O)c2ccc(Cl)cc2)c1	0.5	i
CCOC(=O)N1CCN(C(=O)c2cc3c(ccc4ccccc43)oc2=O)CC1	1.4	i
COc1ccc(-c2cc(C(=O)N3CCCCCC3)c3ccccc3n2)c(OC)c1	0.02	i

Further records follow:
Screens in order: KCNQ2 inh baseline	KCNQ2 inh
COc1ccc(N2CCN(CC(O)COC(c3ccc(F)cc3)c3ccc(F)cc3)CC2)cc1 (configuration not stated)
  -0.69	i
COc1ccc(N(CC(=O)Nc2cccc3ccccc23)S(C)(=O)=O)c(OC)c1
  -0.73	i
CN(Cc1ccc(-n2cccn2)cc1)Cc1nc(-c2cnccn2)no1
  -2.2	i
O=C(O)c1ccc(CSc2nnc(-c3ccncc3)n2CC2CCCO2)cc1 (configuration not stated)
  0.44	i
O=C(CNC(=O)c1ccc(Br)o1)NNC(=O)c1ccccc1O
  -0.91	i
Cc1c(NC(=O)C2CC(c3ccc(F)cc3)=NO2)c(=O)n(-c2ccccc2)n1C (configuration not stated)
  -1.2	i
c1ccc(CCN2CN=C(Nc3nc4ccccc4s3)NC2)cc1
  -0.25	i
O=C(c1cc2nc(-c3cccs3)cc(C(F)(F)Cl)n2n1)N1CCCc2ccccc21
  -2.4	i
Cc1ccc(Oc2nc3ccccc3n3c(C)nnc23)cc1
  0.19	i
Cc1ccc(C)c(OCC(=O)NCC(C)C)c1C
  2.6	i
CCC(C)(C)NC(=O)C(c1ccc(F)cc1)N(Cc1ccco1)C(=O)c1cnccn1 (configuration not stated)
  -1.1	i
O=C(NCCN1CCCCC1)Nc1ccc(F)cc1F
  0.84	i
O=C(N/N=C\c1ccc(Cl)s1)C1COc2ccccc2O1 (configuration not stated)
  1.2	i
CC(C)N(Cc1nnc(-c2ccc(Cl)cc2)o1)C(=O)C1=COCCO1
  -0.35	i
CC(=O)c1ccccc1NC(=O)Cn1c(=O)cnc2ccccc21
  -1.7	i
O=C(c1ccc(CNS(=O)(=O)c2ccc(Br)cc2)cc1)N1CCCC1
  0.34	i
CN(C)S(=O)(=O)c1ccc(N2CCCC2)c(C(=O)Nc2ccc(Br)cc2F)c1
  0.04	i
O=C(COC(=O)C1CCCN1C(=O)c1cccs1)Nc1ccc2c(c1)OCO2 (configuration not stated)
  1.1	i
CCOC(=O)N1CCN(C/C(C)=C/c2ccccc2)CC1
  -0.47	i
COC(=O)N/N=C1/C/C(=N\NC(=O)OC)c2ccccc21
  0.07	i
OCCC1CN(Cc2nc3c(s2)CCCC3)CCN1Cc1ccccc1 (configuration not stated)
  -0.6	i
Cc1ccc(NC(=O)CSc2nnc(CCCCCNC(=O)OC(C)(C)C)o2)c(C)c1
  0.06	i
CCN(CCO)Cc1csc2cccc(Br)c12
  0.03	i
COc1cc(/C=C/C(=O)OCC(=O)NCc2ccco2)ccc1OCC#N
  -0.38	i
Cc1ccc(C2=NN(CC(=O)NCCC(C)C)C(=O)CC2)cc1
  0.4	i
COc1ccccc1Nc1ccc(NC(=O)c2cccc([N+](=O)[O-])c2C)cc1
  -0.65	i
CCc1c(C)c2cc(Cl)c(O)c(CN(CC)CC)c2oc1=O
  1.1	i
CC1(C)Nc2ccccc2C(=O)N1NS(=O)(=O)c1ccccc1
  0.15	i
CSc1ccc(CN2CCC(C(=O)NCc3ccc(C)cc3)CC2)cc1
  0.51	i
O=C(Nc1ccccc1Cl)NC1(C(=O)NCc2ccncc2)CCCCC1
  0.66	i

Next part.
Screens in order: KCNQ2 inh baseline	KCNQ2 inh
Cc1cccc(N(C(=O)c2csnn2)C(C(=O)NCc2ccccc2)c2ccc(C)o2)c1 (configuration not stated)
  -0.02	i
CCCCN(CCCNC(=O)CN1C(=O)COc2ccccc21)c1ccccc1
  -0.56	i
COc1ccc(C)cc1NC(=O)CSc1nnc(CC(=O)Nc2cccc(C(F)(F)F)c2)n1C
  0.3	i
Cc1[nH]c2ccccc2c1C(=O)COC(=O)c1ccc2c(=O)n3c(nc2c1)CCC3
  -0.29	i
CC(=O)CSc1nsc(SCC(C)=O)c1C#N
  1	i
CCCN(CC(=O)Nc1ccccc1C)C(=O)c1ccc(Cl)c(S(=O)(=O)N2CCCC2)c1
  0.85	i
CC(=O)c1cccc(NC(=O)Cc2ccc3c(c2)CCCC3)c1
  -0.55	i
Cc1cccc(NS(=O)(=O)c2c(C)noc2C)c1
  0.37	i
Cc1ccc(N2CC(C(=O)NC3=NCCS3)CC2=O)cc1C (configuration not stated)
  1.7	i
Cc1ccc2c(C)c(C(=O)N(Cc3ccc(N(C)C)cc3)C3CCS(=O)(=O)C3)oc2c1 (configuration not stated)
  0.56	i
Oc1cccc(Nc2ncnc3c2oc2ccccc23)c1
  -1.3	i
Cc1ccc(S(=O)(=O)N2CCC(C(=O)N(C)C3CCS(=O)(=O)C3)CC2)cc1 (configuration not stated)
  0.02	i
CCCCNc1ccccc1C(=O)OCC(=O)Nc1ccc(S(N)(=O)=O)cc1
  -0.02	i
CC1CCC(NC(=O)CN2CCCN(Cc3ccc(F)cc3Cl)C2=O)CC1 (configuration not stated)
  0.94	i
Cc1nc([N+](=O)[O-])cn1CC(O)c1ccc(F)cc1 (configuration not stated)
  -1.7	i
COc1ccccc1NS(=O)(=O)c1cc(NC(=O)CNC(=O)c2ccc(C)s2)ccc1Cl
  -0.27	i
CCC(NC(=O)c1cncc(Br)c1)c1ccccc1 (configuration not stated)
  -0.65	i
CSc1nnc2c(n1)OC(c1ccc(C(=O)O)cc1)N(C(C)=O)c1ccccc1-2 (configuration not stated)
  1	i
CC(SCc1ccccc1)C(=O)Nc1ccccc1-c1ccccc1 (configuration not stated)
  -0.08	i
Cc1cccc(NC2=NCC(=O)N2CCc2ccccc2)c1
  -0.35	i
CC1=C(C(=O)OC2CCCCC2)C(c2ccc(O)cc2)NC(=O)N1 (configuration not stated)
  1.7	i
CN(C)C(=O)C[n+]1ccc(/C=N/O)cc1
  2.4	i
COc1cccc(CN2CCCC(C(=O)c3ccc4c(c3)OCO4)C2)c1O (configuration not stated)
  -0.88	i
CCOc1cc(C2NC(=S)NC(C)=C2C(=O)Nc2ccc(OC)cc2)ccc1O (configuration not stated)
  -0.15	i
O=C(O)c1cc2c(cc1NC(=O)c1ccccc1C(F)(F)F)OCCCO2
  -0.91	i

This is a subset, so the mix of outcomes need not match the whole.
